Screening results as filed in PubChem.
Beta cell apopt: beta cell apoptosis inhibition. INS-1E cytokine-induced death, ATP luminescence, 48 h; percent of positive-control rescue, neutral wells zero. protection from apoptosis, % (concentration not given with the values). 300,000 tested, 0.8% active;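 active = all replicates at 75% or more, or half of them and the mean; inconclusive = half reach 75% but not the mean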;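 also: 0% = cytokine-treated negative control wells and 100% = positive control rescue; higher means more ATP so stronger rescue from cytokine killing; wells of about 40 µL received 100 nL stock; the first replicate is given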
Beta2AR agonist: human beta-2 adrenergic receptor agonism by FAP; P07550; Am2.2-beta2AR cells, FAP receptor internalization, flow cytometry; reference of the scale not given here; response, % (no concentration beside the values); 340,000 tested, 0.43% active;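 active = response above a set limit, near 3 SD of response in nonfluorescent compounds, cut at about 42% in these data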;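 also: stock transfer was 100 nL into about 11 µL; a reference agonist was the positive control; negative values mostly stem from fluorescent compounds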
Target sequence (P07550 whole entry, looked up): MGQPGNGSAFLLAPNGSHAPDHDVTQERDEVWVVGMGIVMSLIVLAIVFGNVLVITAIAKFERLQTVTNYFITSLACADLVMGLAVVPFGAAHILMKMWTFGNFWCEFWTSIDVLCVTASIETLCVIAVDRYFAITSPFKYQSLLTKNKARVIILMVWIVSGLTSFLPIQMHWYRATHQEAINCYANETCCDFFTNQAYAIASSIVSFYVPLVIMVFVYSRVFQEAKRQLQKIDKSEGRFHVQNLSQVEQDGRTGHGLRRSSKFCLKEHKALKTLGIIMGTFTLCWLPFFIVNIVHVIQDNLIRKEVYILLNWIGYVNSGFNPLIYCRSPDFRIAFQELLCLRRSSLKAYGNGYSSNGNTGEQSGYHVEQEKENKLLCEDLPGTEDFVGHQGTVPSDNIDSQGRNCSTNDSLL
T cruzi repl: T. cruzi replication inhibition | T. cruzi beta-gal in NIH3T3, luminescence, 90 h | AID 1885 | 300,000 tested, 1.4% active | inhibition, % (concentration not given with the values);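 active = mean inhibition across valid replicates above about 55%, limit read from the data; inconclusive = mean below that limit but half or more replicates reach it; inactive = mean below it, under half of replicates reach it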;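 also: signal also drops with host cell toxicity which is not excluded here; 0% = plate median of DMSO wells and 100% = zero luminescence signal; higher percent means less beta-gal luminescence so fewer parasites; stock transfer was 50 nL into about 50 µL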
Calb FLC: affects C. albicans growth with fluconazole | AID 1979 | growth inhibition, % (concentration not given with the values) | C. albicans CaCi-2 (fluconazole-resistant clinical isolate) + fluconazole, Alamar Blue growth, 48 h | 300,000 tested, 0.57% active;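 active = most replicates above 75%; inconclusive = exactly half above 75%; inactive = most below 75%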;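 also: all wells also contain fluconazole at 8 µg/ml as a sub-toxic cotreatment; 0% = median of DMSO wells and 100% = median of geldanamycin control wells; wells of about 8 µL received 7.5 nL stock; the first replicate is given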
ALR H2O2 inh: inhibitors of human sulfhydryl oxidase ALR | purified ALR, DTT oxidation, H2O2 HRP-luminol luminescence | 290,000 tested, 3.8% active | inhibition, % (test concentration not listed) | P55789;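 active = mean and each replicate at 75% or more; inconclusive = only one of the two met; inactive = neither met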;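 also: stock transfer was 7.5 nL into about 7.5 µL; 0% = neutral wells and 100% = wells with inactivated enzyme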
Target sequence (P55789 whole entry, looked up): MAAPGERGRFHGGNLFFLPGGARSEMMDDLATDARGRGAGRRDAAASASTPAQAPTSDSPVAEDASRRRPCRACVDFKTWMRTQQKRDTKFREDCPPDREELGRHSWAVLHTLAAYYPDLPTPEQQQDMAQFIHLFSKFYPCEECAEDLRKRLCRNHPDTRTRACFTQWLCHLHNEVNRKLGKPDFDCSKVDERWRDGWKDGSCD
A1 inh: inhibitors of the anti-apoptotic protein A1, read as caspase activation | MEF A1-2A-BIM cells, Caspase-Glo 3/7 luminescence, 3 h; percent of clofoctol response, vehicle zero | caspase activation, % (no concentration beside the values) | 330,000 tested, 0.066% active | AID 2462;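 active = over half of replicate activation scores above 10%, or exactly half above 10 with the replicate mean above 10; inconclusive = replicate mean below 10 yet half the replicates above 10; inactive = over half of replicates below 10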;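 also: wells of about 30 µL received 50 nL stock; many hits fall short of the cut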
LANA-H2B inh: blocks KSHV LANA binding to histone H2A/H2B. Q9QR71. cell-free LANA-H2A/H2B peptide, fluorescence polarization. inhibition, % (no concentration beside the values). 320,000 tested, 0.6% active; in the data active = inhibition mostly above about 10%, no sharp cut-off; inactive = mostly below about 6.7%;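 also: stock transfer was 7.5 nL into about 10 µL; 0% = median of vehicle wells and 100% = median of positive control wells; one replicate is shown; the record names a cut of 25% in any replicate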
rRNA inh HTS: inhibitors of bacterial rRNA selective over humanized ribosomes. GFP signal change (wild-type ribosome), % (test concentration not listed). 350,000 tested, 1.6% active. E. coli WT GFP vs humanized-ribosome RFP mutants, fluorescence, 24 h; active compounds read low; DMSO median 0, no signal -100;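 active = significant combined selectivity score with lowered wild-type GFP, culture density cut under 30%, mutant RFP and density less affected; inactive = any of these conditions unmet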; also: one replicate is shown; some compounds called inactive have numbers as strong as hits
rRNA inh HTS OD600: recorded beside rRNA inh HTS, whose call it bears; OD600 change, %; measured here: OD600 growth;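 optical density of the mix in the first replicate; 0 = DMSO median and -100 = no signal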
rRNA inh HTS RFP: recorded beside rRNA inh HTS, whose call it bears; RFP signal change, %; measured here: RFP humanized mutant strains;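 first replicate; 0 = DMSO median and -100 = no signal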
The depositor's hits bear a star; ? = inconclusive; · = not tested or not shown.

SMILES	Beta cell apopt	Beta2AR agonist	T cruzi repl	Calb FLC	ALR H2O2 inh	A1 inh	LANA-H2B inh	rRNA inh HTS	rRNA inh HTS OD600	rRNA inh HTS RFP
Cc1ccc(C(=O)NNC2CC(=O)N(c3ccc4c(c3)OCCO4)C2=O)cc1 (stereo unspecified)	2.0	15.8	-11.4	-10.9	3.7	-0.2	6.6	6.3	8.2	1.6
CC1CN=C(N(C(=S)Nc2ccccc2)c2cccc(C(F)(F)F)c2)S1 (stereo unspecified)	5.5	-0.2	-1.4	3.6	-2.2	0.7	-9.6	-8.2	-9.3	1.8
CC(NS(=O)(=O)c1ccc2[nH]c(=O)c(=O)[nH]c2c1)C(=O)O (stereo unspecified)	-16.2	-0.2	-8.4	-3.6	-37.0	-0.2	1.9	0.9	2.1	-2.9
O=C(CSc1nnc(SCc2ccc(F)cc2)s1)Nc1ccc(C(=O)O)cc1	-2.1	2.8	-4.5	10.5	5.0	-0.1	-3.3	-25.8	-22.4	0.3
Cc1nnc(NC(=O)c2cc(S(=O)(=O)N(C)C)ccc2N2CCCC2)s1	-3.2	-1.1	·	·	·	0.9	-1.7	6.9	8.1	1.2
COc1cccc(CNC(=O)C2CCN(S(=O)(=O)N3CC(C)CC(C)C3)CC2)c1 (stereo unspecified)	4.1	-3.5	8.2	-1.1	0.8	0.5	2.3	3.5	11.1	1.2
C=CCn1c(Cc2cccs2)nnc1SCC(=O)c1ccc2ccccc2c1	-10.1	-6.0	24.5	-24.6	0.1	-0.4	5.7	·	·	·
CN=C(Nc1ccc(C)c(C)c1)SC1CC(=O)N(c2ccc(OC)cc2)C1=O (stereo unspecified)	-6.5	1.5	15.7	-11.0	29.2	0.0	5.0	-21.1	-24.9	5.7
Cc1ccc(S(=O)(=O)CCC(=O)OCC(=O)N2c3ccccc3NC(=O)C2(C)C)cc1	-5.1	9.8	2.7	-3.4	0.7	-0.4	-4.6	10.4	10.2	1.7
CCN(CC)c1c(-c2ccccc2)c2cc(C)ccc2[nH]c1=O	·	0.8	20.6	-3.6	·	·	·	-1.7	-0.2	-1.4
COc1cc(S(=O)(=O)Nc2ccccn2)ccc1F	-1.0	-3.1	-11.3	29.9	0.8	0.4	7.6	·	·	·
C[C@H](NC(=O)c1[nH]cnc1C(=O)Nc1ccon1)c1ccccc1	-4.2	-2.8	·	·	-5.3	1.6	4.7	1.6	3.1	-3.1
O=C1CC(c2ccccc2)CN1C(=O)c1cccnc1 (stereo unspecified)	-7.5	7.0	-11.0	-1.4	-5.7	0.3	3.9	5.4	-6.2	-8.3
CCOc1ccc(NC(=O)CC2SC(N)=NC2=O)c([N+](=O)[O-])c1 (stereo unspecified)	3.2	-4.4	-6.5	-7.8	·	-0.4	-1.2	8.1	-4.8	-2.6
O=C(Nc1ccccc1)c1ccc(S(=O)(=O)N2CCCC2)cc1	-3.0	1.2	-8.2	6.5	-7.4	-1.2	-4.2	·	·	·
C=CCN(C1CCCCC1)S(=O)(=O)c1ccc2c(c1)oc(=O)n2C	-3.8	-3.6	-14.2	-0.9	-20.4	0.5	-3.8	-29.4	-43.2	-5.8
CC1(C)CC(NC(=O)CCc2nnc(CCCCc3ccccc3)o2)CCO1 (stereo unspecified)	-4.3	-4.2	-13.6	-5.0	-15.8	0.0	-1.0	2.7	9.7	0.9
CCN1CCN(C(=S)c2ccc([N+](=O)[O-])cc2)CC1	2.1	4.8	-2.8	-16.6	57.6	0.3	-0.4	9.3	13.4	-9.8
Cc1ccc(C)c(NC(=O)C2CC=CCC2C(=O)O)c1 (stereo unspecified)	-8.0	1.2	-7.1	6.2	-10.8	-0.5	0.5	·	·	·
COc1cc(C(=S)N2CCOCC2)cc(OC)c1OS(=O)(=O)c1ccc(C)cc1	-4.1	-5.5	-10.8	-4.2	-17.2	1.8	5.8	5.3	-6.5	-3.1
CCN(CC)S(=O)(=O)c1ccc(N2CCCCC2)c(NC(=O)C2CCN(C(=O)c3ccc(F)cc3)CC2)c1	14.3	2.7	42.6	-1.3	-18.3	1.7	0.0	4.5	7.0	-0.6
Cc1csc(NC(=O)CCn2c(=O)oc3ccccc32)n1	0.2	-7.0	0.8	?	-2.4	0.4	0.7	·	·	·
CCC(NC(=O)Nn1cnnc1)(C(F)(F)F)C(F)(F)F	-5.4	-4.4	-7.6	-1.5	-9.7	0.4	0.6	·	·	·
CCCCn1c(SCC(=O)N2CCOCC2)nc2ccccc2c1=O	0.8	-6.6	9.6	-3.9	1.6	-0.7	2.5	1.4	-14.9	-1.5
COC(=O)c1cc(COC(=O)c2cccnc2SC)oc1C	5.4	-0.3	-8.7	0.0	2.1	-0.8	0.4	·	·	·

A few values from the results shown:
O=C(Nc1ccccc1)c1ccc(S(=O)(=O)N2CCCC2)cc1 in ALR H2O2 inh is listed with -7.4
O=C(CSc1nnc(SCc2ccc(F)cc2)s1)Nc1ccc(C(=O)O)cc1 in Beta2AR agonist is listed with 2.8
Cc1ccc(C(=O)NNC2CC(=O)N(c3ccc4c(c3)OCCO4)C2=O)cc1 (stereo unspecified) in T cruzi repl is listed with -11.4
COc1cc(C(=S)N2CCOCC2)cc(OC)c1OS(=O)(=O)c1ccc(C)cc1 in Calb FLC is listed with -4.2

Next part:
SMILES	Beta cell apopt	Beta2AR agonist	T cruzi repl	Calb FLC	ALR H2O2 inh	A1 inh	LANA-H2B inh	rRNA inh HTS	rRNA inh HTS OD600	rRNA inh HTS RFP
COc1ccc(CCNC(=O)C2CCN(S(=O)(=O)c3c(C)noc3C)CC2)cc1OC	3.9	1.4	10.4	4.2	-3.8	-1.1	-0.8	·	·	·
O=C(CNC(=O)c1ccc(Cl)cc1)NC1CCCCC1	-17.8	19.9	10.9	-1.5	-4.3	-0.4	1.5	4.6	6.8	0.1
COc1ccc(NS(=O)(=O)c2cc(NC(=O)C3CCCO3)ccc2N2CCCC2)cc1 (stereo unspecified)	-7.2	8.1	-5.1	39.2	-39.8	1.1	-0.7	10.2	-3.4	-0.1
CCc1ccccc1Nc1nc(N)nc(CSc2nnc3ccccn23)n1	-3.7	-9.1	-3.8	-37.6	-1.9	1.5	0.7	-8.4	13.2	-2.1
O=C(CCNS(=O)(=O)c1ccc(Br)cc1)NNC(=O)C1COc2ccccc2O1 (stereo unspecified)	-7.8	-0.4	·	·	-18.4	0.5	-0.5	-4.1	-10.3	-3.6
Cc1ccc(NC(=O)CSc2nnc(-c3cnccn3)n2C)cc1C	2.3	-7.6	20.8	-12.3	22.9	-0.4	7.4	7.0	3.3	3.2
CCN(CC)S(=O)(=O)c1cccc(NC(=O)CN2C(=O)c3ccc([N+](=O)[O-])cc3C2=O)c1	2.6	7.9	-19.4	-10.8	·	0.6	-0.6	1.1	2.7	-3.5
CC(=O)NS(=O)(=O)c1ccc(NS(=O)(=O)c2ccccc2[N+](=O)[O-])cc1	-4.6	-0.3	1.2	-5.2	-5.7	-0.9	0.0	10.0	0.9	2.4
Cc1c(CN(C)C)c2c(n1Cc1ccccc1)C(=O)c1ccc(Br)cc1-2	11.0	25.9	21.4	-14.3	-11.8	0.4	-4.2	·	·	·
CC(=O)N1c2ccccc2C(CBr)=CC1(C)C	-3.0	0.1	-8.1	26.9	-1.5	0.4	-7.1	19.0	9.0	4.1
COCCN1C(=O)N[C@@H](c2cccc(C(F)(F)F)c2)C(C(=O)OC)=C1C	-6.5	-14.1	-0.7	-11.5	2.3	0.3	-1.0	·	·	·
COc1ccc(NC(=O)c2ccc3[nH]c(=O)c(=O)[nH]c3c2)c(OC)c1	-1.7	-5.2	-2.3	-0.1	-10.8	1.6	2.9	-1.1	2.0	2.5
COc1ccccc1NC(=O)C1=C(C)Nc2nnnn2C1c1cc(Br)ccc1OC (stereo unspecified)	0.9	-5.1	11.4	-0.9	·	0.9	-2.7	·	·	·
COc1ccc(NC(=O)c2ccc(COc3ccccc3OC)o2)cc1OC	-1.1	2.8	-8.7	2.6	-28.1	0.1	-3.8	·	·	·
Cc1ccccc1C(=O)N/N=C/c1ccncc1	-2.2	8.5	-1.9	-1.6	1.6	-0.4	2.0	·	·	·
Cc1ccccc1S(=O)(=O)NC1OC(=O)C(Cl)=C1Cl (stereo unspecified)	-3.2	9.3	0.4	-2.0	14.2	-0.5	-3.1	·	·	·
Cc1nc([N+](=O)[O-])c(NCCO)n1Cc1ccccc1	0.6	-0.2	-8.8	-0.1	-0.3	-0.3	11.8	13.2	12.9	-0.9
O=C(CCC(NC(=O)OCc1ccccc1)C(=O)O)OCc1ccccc1 (stereo unspecified)	·	-6.4	-7.3	9.4	-1.6	-0.4	1.9	5.6	17.6	-0.3
O=C(CSc1nc(-c2ccc(F)cc2)cs1)NC(=O)NCc1ccco1	2.1	-1.9	6.2	4.5	14.6	1.5	1.5	·	·	·
CC(C)CSc1nnc(N)s1	-2.5	4.4	-7.4	-24.8	-6.4	1.4	1.5	·	·	·
CC(=O)Nc1c(NCC(C)C)c2ccccc2oc1=O	1.0	0.8	-19.2	-3.8	-5.2	1.4	1.5	·	·	·
COc1cc(NC(=S)N2CCCC(C)C2)c(OC)cc1Cl (stereo unspecified)	-6.1	0.8	-4.6	35.4	-4.7	-1.5	-7.9	0.6	-2.8	-3.2
O=c1ccc(NS(=O)(=O)c2ccc(Cl)cc2)cn1Cc1ccc(Cl)c(Cl)c1	-2.0	11.7	-0.6	?	·	0.5	1.2	·	·	·
O=C(COc1ccccc1F)Nc1c2c(nn1-c1ccccc1)CS(=O)(=O)C2	·	-1.5	5.8	10.5	-12.7	0.7	0.7	-0.1	8.9	-1.8
Cc1cc(NC(=O)CCC(=O)N(CC(=O)NC2CCCC2)Cc2ccc(F)cc2)no1	-2.2	-1.8	13.9	-1.2	3.1	0.4	-2.2	·	·	·
CC(NC(=O)COC(=O)C1CCN(c2ccc(C(F)(F)F)cn2)CC1)c1ccc(F)cc1 (stereo unspecified)	-3.4	1.1	·	·	-7.1	0.4	16.7*	-5.0	-3.1	0.0
C[C@H](CO)N1C[C@H](C)[C@@H](CN(C)C(=O)Nc2ccccc2)Oc2c(NC(=O)Nc3ccc(C(F)(F)F)cc3)cccc2C1=O	14.5	12.9	·	·	-9.1	1.5	0.9	2.8	-11.6	-9.2
CN1CCN(CCNC(=O)c2cn(Cc3ccccc3F)nn2)CC1	-12.9	7.2	6.7	-6.6	-11.1	-0.3	-2.6	26.2	6.1	-0.8
COc1ccc(Cn2nc(-c3ccccc3)c(N3CCCCC3)cc2=O)cc1	4.7	108.3*	37.9	15.7	-45.0	-0.1	-0.4	-55.8	-64.2	-6.7
O=C(NC1CCSc2ccccc21)c1cc(S(=O)(=O)N2CCOCC2)ccc1F (stereo unspecified)	·	6.3	1.5	-6.6	3.1	1.0	0.4	0.9	-2.2	2.1

Two records picked at random from the list so far, as already listed:
SMILES	Beta cell apopt	Beta2AR agonist	T cruzi repl	Calb FLC	ALR H2O2 inh	A1 inh	LANA-H2B inh	rRNA inh HTS	rRNA inh HTS OD600	rRNA inh HTS RFP
CC(C)CSc1nnc(N)s1	-2.5	4.4	-7.4	-24.8	-6.4	1.4	1.5	·	·	·
CC(=O)Nc1c(NCC(C)C)c2ccccc2oc1=O	1.0	0.8	-19.2	-3.8	-5.2	1.4	1.5	·	·	·

Only part of the results is shown, so the mix of outcomes need not match the whole.
